D2 ag = human D2 receptor agonism in beta-arrestin assay | DiscoveRx PathHunter D2 beta-arrestin, luminescence, 90 min; 100% = 57 uM dopamine signal | P14416 | activation, % (test concentration not listed) | 0.084% of 360,000 active; in the data active = activation above about 40%; inconclusive = about 15% to 40%; inactive = below about 15%; also: compound concentration not given in the record; the text of the record calls up to 30% inactive
Target sequence (P14416 whole entry, looked up): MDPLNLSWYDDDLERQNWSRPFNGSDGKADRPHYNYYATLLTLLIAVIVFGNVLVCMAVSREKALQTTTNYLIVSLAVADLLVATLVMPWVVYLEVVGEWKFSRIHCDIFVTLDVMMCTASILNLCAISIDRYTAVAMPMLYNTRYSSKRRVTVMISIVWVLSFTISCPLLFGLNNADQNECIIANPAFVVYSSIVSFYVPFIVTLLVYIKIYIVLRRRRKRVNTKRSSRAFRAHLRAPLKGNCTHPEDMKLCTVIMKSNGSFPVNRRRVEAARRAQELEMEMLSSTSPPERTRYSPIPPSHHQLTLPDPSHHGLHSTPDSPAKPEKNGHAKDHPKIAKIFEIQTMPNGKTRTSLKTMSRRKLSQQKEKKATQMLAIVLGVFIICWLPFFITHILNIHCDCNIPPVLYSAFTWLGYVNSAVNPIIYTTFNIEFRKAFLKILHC
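DiscoveRx PathHunter D2 beta-arrestin cells (2,100/well) attached overnight, then compound-stimulated 90 min at 37 C in HBSS/10 mM HEPES/0.1% Tween-20 buffer; beta-galactosidase complementation read by luminescence after 1 h at ambient temperature. Dopamine 57 uM final (EC100) as control.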
CtBP-E1A blk = inhibitors of CtBP/E1A interaction | AlphaScreen GST-E1A/His-CtBP binding, 1536-well; active compounds read low; control for the full effect not named in the record | 0.49% of 340,000 active | activity change, % (no concentration beside the values) | AID 651724; in the data active means activity change below about -65%; inconclusive means about -30% to -65%; inactive means above about -30%; also: % is scaled to controls: 0 for no effect and ±100 for the full control effect
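Protein mix (5X: 125 nM each GST-E1A, His-CtBP) was incubated with pinned compound 2 h at 37 deg C in dark, in 50 mM Tris pH 8.0 buffer with 300 mM NaCl. Glutathione donor and nickel acceptor beads followed; AlphaScreen signal read after 1 h.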
gsp ag = agonists of gsp mutant (McCune-Albright syndrome); gsp mutant cells, cAMP HTRF, 30 min; control for the full effect not named in the record; Potency, µM (series often up to 76.9 µM), inactives show at the top dose activation (cAMP increase), most hits filed as activators; 0.13% of 340,000 active; active = well fitted activation curve with a large enough effect; inconclusive = small, poorly fitted or top-dose-only effect, or another doubt; inactive = no such curve, though single readings can be large or run the other way; cell line not stated here;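 also: phosphodiesterase inhibitor Ro 20-1724 added with compounds to block cAMP breakdown; potency is read from the fitted curve at half-maximal effect; nearly all actives have a fitted effect of over 60% in size; about a fifth of the inactives were tested at one dose only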
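Cells stably selected in G418 were plated at 2000/well, grown 16-24 hr, then given compounds in DMSO with the PDE inhibitor […] (300 uM solution added) for 30 min at 37C; cAMP was read by HTRF.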
gsp antagonist = gsp mutant antagonism | gsp-mutant cells, cAMP HTRF, 30 min; control for the full effect not named in the record | Potency, µM (titrated, usually from 76.9 µM), inactives show at the highest dose activity change, negative = inhibition, usual class: inhibitors | 0.4% of 340,000 active | AID 624288; active = falling curve of any shape with a large fitted effect; inconclusive = falling curve, mostly with a smaller effect; inactive = flat or rising curve; cell line not stated here;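 also: intracellular cAMP measured with PDE inhibitor Ro 20-1724 present during compound exposure; potency is read from the fitted curve at half-maximal effect; % is scaled to controls: 0 for no effect and ±100 for the full control effect; nearly all actives have a fitted effect of over 65% in size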
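Cells, 2000/well, grown 16–24 h in DMEM 10% FBS with 0.5 mg/ml G418, then compounds plus […] (300 uM addition stock), 30 min at 37C. cAMP read by HTRF (cAMP-d2 and anti-cAMP antibody-K in lysis buffer) after 30 min RT.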
D2 PAM = positive allosteric modulators of human D2 dopamine receptor; P14416; DiscoveRx D2 beta-arrestin cells, luminescence, 90 min; 100% = 57 uM dopamine signal; potentiation, % (no concentration beside the values); 0.23% of 360,000 active; AID 624464; active = potentiation of 50% or more; inconclusive = 30% to 50%; inactive = 30% or less;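 also: compound concentration not given in the record; tested on top of an EC20 dose of dopamine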
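PathHunter beta-arrestin assay in DiscoveRx D2 cells. Compounds were added with an EC20 of dopamine (50 nM final) for 90 min at 37 deg C. Luminescence was read 1 h after detection reagent, with 57 uM dopamine as the EC100 control.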
Six1-Eya2 inh = blocks human Six1 binding to Eya2; activity change, % (no concentration beside the values); 0.56% of 360,000 active; AlphaScreen GST-Six1/His-Eya2 binding, biochemical; active compounds read low; control for the full effect not named in the record; AID 651725; Q15475+O00167; in the data active = activity change below about -65%; inconclusive = about -30% to -65%; inactive = above about -30%; also: % is scaled to controls: 0 for no effect and ±100 for the full control effect
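Homogeneous AlphaScreen proximity assay pairing GST-Six1 with His-tagged Eya2 (added as 5X mix: 250 nM and 500 nM) in 50 mM Tris pH 8.0, 300 mM NaCl, 1 mM TCEP. Glutathione donor and nickel acceptor beads; 1 h, 37 °C, dark.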
* marks the source's active call; other numbers are inactive results; ? = inconclusive; . = no result given; [ ] = remark or other dose.

The line under a structure holds: gsp antagonist	gsp ag	D2 ag	D2 PAM	Six1-Eya2 inh	CtBP-E1A blk
(1) Cc1ccc(S(=O)(=O)NCc2cccnc2)cc1C(=O)NC1CCCCC1
  7%	17%	0.8	-27	-22	-1
(2) CCOC(=O)C1CCCN(C(=O)c2[nH]c(C(F)(F)F)nc2-c2ccccc2)C1 (centres undefined)
  .	.	-5.0	-5	1	7
(3) CC(=O)c1cc2c(cc1NC(=O)CN1CCCCC1C)OCO2 (centres undefined)
  0%	21%	-2.4	1	-4	-5
(4) CC12CCC(C(=O)N(CCCN3CCN(Cc4ccccc4)CC3)C1=O)C2(C)C (centres undefined)
  10%	13%[15.4 µM]	-2.4	-16	1	5
(5) COC(=O)CS(=O)(=O)c1cc(Br)cc2c1N(C(C)=O)CC2
  -15%	?	-1.6	-27	-4	-10
(6) O=C1CC2c3ccccc3C1C1C(=O)N(CCO)C(=O)C21 (centres undefined)
  9%	?	-3.0	-2	-7	-6
(7) Cc1ccc(F)c(S(=O)(=O)NC(=O)C2(C)CCN2C(=O)CC(c2ccccc2)c2ccccc2)c1 (centres undefined)
  .	.	3.2	1	-2	-2
(8) O=C1NC(c2ccccc2)(C(F)(F)F)C(=O)N1Cc1cccnc1 (centres undefined)
  12%	21%	2.9	-4	6	8
(9) Cn1cnnc1SCC(=O)Nc1ccc2nc(SCc3cccc4ccccc34)sc2c1
  -9%	8%	3.6	6	-14	-5
(10) CCOC(=O)N1CCC(NC(=O)c2cc(-c3ccc(F)cc3)[nH]c2C)CC1
  4%	-26%[15.4 µM]	2.5	-28	2	?
(11) Cc1c(C(=O)NCc2cccc([N+](=O)[O-])c2)sc(=O)n1Cc1ccc(C(C)C)cc1
  .	.	-7.0	-6	-11	-14
(12) COc1ccc(-c2sc3cc4c(cc3c2-c2ccc3c(c2)OCCO3)OCO4)cc1
  1%	.	0.5	-3	-2	-1
(13) C/C(NC(=O)c1cccc(F)c1)=C1/C(=O)C[C@@H]2[C@H]1C2(C)C
  -31%	6%	-0.8	6	9	30
(14) CCC1(c2ccccc2)NC(=O)N(CC(=O)N(c2ccccc2)C2CCS(=O)(=O)C2)C1=O (centres undefined)
  10%	-25%	0.5	-2	-9	0
(15) Cc1ccccc1NC(=O)CCCC(=O)c1ccccc1
  4%	-17%[15.4 µM]	-0.7	-3	1	6
(16) CC(C)C(=O)Nc1ccc(C(=O)NNC(=S)NC(=O)c2ccco2)cc1
  -3%	?	-5.3	-5	0	-9
(17) COc1ccc(N(C(=O)C2CSC(=O)C2)C(C(=O)NC(C)(C)C)c2ccncc2)cc1 (centres undefined)
  8%	12%	-4.9	-4	9	.
(18) O=C(O)c1ccc(-c2nc(-c3cccc(C(F)(F)F)c3)cs2)cc1
  ?	-5%	1.2	2	1	0
(19) COc1ccc(OC)c(NC(=O)CSCC(=O)O)c1
  -5%	?	-1.8	0	0	0
(20) COc1ccc(N2CCN(C(=O)COc3ccc(S(=O)(=O)N4CCOCC4)cc3C)CC2)cc1
  .	-5%[15.4 µM]	2.2	4	-2	-13
(21) CC1(C(=O)NCCCN2CCCC2=O)CCN1CCc1ccccc1 (centres undefined)
  .	.	-4.8	-3	-5	2
(22) O=C(c1ccc(Cl)c(S(=O)(=O)N2CCCCCC2)c1)N1CCN(CCO)CC1
  -13%	-25%	-0.7	-6	-10	-10
(23) CCCCc1ccc(NS(=O)(=O)N(C)C)cc1
  5%	19%	-2.7	-23	0	-12
(24) COc1ccc(/C=C2\SC(=O)N(CC(=O)N(C)C3CCS(=O)(=O)C3)C2=O)cc1 (centres undefined)
  -2%	27%	5.5	-9	2	-4
(25) CSc1ncccc1C(=O)OCC(=O)NCCC1=CCCCC1
  -8%	-83%[inhibitor]	-5.6	-37	0	7
(26) C[C@@H]1Cc2c(O)c(O)cc(O)c2C(=O)O1
  3%	.	?	?	-6	2
(27) CN(CC(=O)Nc1ccc(N2CCOCC2)cc1)Cc1cc(=O)n2ccsc2n1
  25%	-3%[15.4 µM]	7.7	6	2	5
(28) CCOC(=O)/C(C#N)=C/c1ccc(OCC(=O)Nc2ccc(OC)cc2)c(OC)c1
  -7%	8%	0.4	18	0	-2
(29) Cc1ccc(C)c(NC(=O)C2Cc3ccccc3CN2C(=O)OCc2ccccc2)c1 (centres undefined)
  -9%	0%	-4.8	-11	-9	-1
(30) C/C(CCc1ccc2c(c1)OCO2)=N\N=C1\NC(=O)CC(C(=O)Nc2ccc(C(=O)O)cc2)S1 (centres undefined)
  -12%	2%	-2.4	-10	-7	-12
(31) CCc1cccc(C)c1NC(=O)CN(C)S(=O)(=O)c1ccc(-c2ccc(=O)[nH]n2)s1
  -10%	-43%[inhibitor]	6.9	-3	2	0
(32) Cc1cccc(C(=O)OCC(=O)N(C)CC(=O)Nc2ccc(Cl)c(C(F)(F)F)c2)c1
  -13%	5%	1.5	-1	1	1
(33) CCCCC/S(CC1CC1(Cl)Cl)=N\S(=O)(=O)c1ccc(C)cc1 (centres undefined)
  -3%	?	-3.3	-3	3	2
(34) Cc1occc1-c1nnc(SCC(=O)c2ccc(F)cc2)n1Cc1ccco1
  0%	4%	-0.5	-4	-6	-1
(35) COc1ccc(-c2c(C)nc3c(-c4ccc(F)cc4)cnn3c2N)cc1
  8%	1%	2.9	-9	1	.
(36) O=C(C1CC1)N(CCN(C(=O)C1CC1)c1ccccc1)c1ccccc1
  -14%	-2%	-2.0	-10	4	4
(37) CCOc1ccc(N2CCc3c(C)nc(SC)nc32)cc1
  0%	-20%	-0.6	-4	-10	0
(38) COc1ccc(/C=N/N=C/c2ccc(OC)cc2)cc1
  3%	-2%	-0.2	-1	-5	9
(39) CCN(CC)S(=O)(=O)c1cccc(-c2n[nH]c(=S)n2C(C)COC)c1 (centres undefined)
  .	0%[15.4 µM]	2.8	-36	1	0
(40) COCC(CN1CCN(C2=NS(=O)(=O)c3ccccc32)CC1)OC(=O)c1ccc(OC)cc1 (centres undefined)
  -4%	3%[15.4 µM]	2.1	-5	-4	0
(41) COCCN1Cc2c(sc(C)c2C)N(C(=O)c2ccccc2)C1
  -22%	-8%	-3.5	-16	-5	-2
(42) COc1ccc(/C=C/C2=NC(=C\N(C)C)/C(=O)O2)cc1
  -12%	-16%	-0.2	-14	?	7
(43) COC(=O)c1cc(=O)n(-c2ccc(C(F)(F)F)cc2)[nH]1
  -5%	?	-0.2	3	13	-9
(44) CCOc1nc(NCc2ccco2)nc(Nc2ccc(OC)cc2)n1
  -2%	-28%	-4.4	-19	-16	-12
(45) COCCNC(=O)C1(C)CCCN(Cc2ccc(C)c3ccccc23)C1 (centres undefined)
  .	.	-8.5	-9	9	-26
(46) COc1ccc(S(=O)(=O)N(C)C[C@@H]2Oc3ccc(NC(=O)Nc4c(C)noc4C)cc3C(=O)N([C@H](C)CO)C[C@@H]2C)cc1
  7.9µM*	28%	-0.6	-15	3	3
(47) CCOC(=O)C1=C(COC(=O)COc2cc(C)ccc2C)NC(=O)NC1C (centres undefined)
  1%	-7%	-0.2	14	-1	3
(48) CC(=O)Nc1ccc(S(=O)(=O)N(Cc2ccccc2)c2ccccn2)cc1
  4%	-36%[inhibitor]	-5.2	-1	0	1
(49) CCN(C(=O)COc1cc(=O)n(C)c2ccccc12)c1cccc(Cl)c1
  ?	9%	-2.4	-4	-1	-4
(50) COc1ccccc1CNC(=O)c1cc(-c2cc(F)ccc2OC)n[nH]1
  .	.	-4.8	-6	1	-2
(51) Cc1ccccc1CN1CCN(c2nc3ccccc3s2)CC1
  -9%	-20%	-2.5	-13	0	7
(52) Cc1c(C(=O)N2CCN(c3ccccn3)CC2)cccc1[N+](=O)[O-]
  7%	-1%[15.4 µM]	-2.4	0	0	-1
(53) O=C(O)CCNC(=O)c1ccc(NC(=O)C(c2ccccc2)c2ccccc2)cc1
  -2%	0%	7.3	3	0	.
(54) O=C(NCCc1ccccc1)c1ccc(-c2ccc(F)c(F)c2)c2ccoc12
  .	.	4.6	-3	11	-13
(55) Cc1c(C(=O)NCc2ccc3c(c2)OCCO3)sc(=O)n1Cc1ccc2c(c1)OCO2
  .	.	5.2	-8	-22	-20
(56) Cc1c(C(=O)Nc2ccccc2)sc2nc[nH]c(=O)c12
  -7%	?	-1.4	-15	-28	?
(57) O=C(Cc1ccc2c(c1)OCCO2)Nc1cccc(S(=O)(=O)N2CCOCC2)c1
  -5%	-6%	4.5	-2	-2	-3
(58) O=C1C(=Cc2cn(-c3ccccc3)nc2-c2ccc(OCc3ccc(Cl)cc3)cc2)SC(=S)N1CCS(=O)(=O)O
  .	.	-1.9	-3	-67*	?
(59) CCSc1nnc(-c2sc3nnc(-c4ccccc4)c(-c4ccccc4)c3c2N)o1
  ?	?	-3.9	-14	23	18
(60) CC(C)(C)[C@H]1COC(=O)CCC/C=C/C[C@H](CC(=O)N(CCO)Cc2ccccc2)C(=O)N1
  6%	.	-0.9	-6	1	-14

Additional records:
The line under a structure holds: gsp antagonist	gsp ag	D2 ag	D2 PAM	Six1-Eya2 inh	CtBP-E1A blk
(61) COC1CCCN(Cc2cn(C)nc2-c2ccc(Oc3ccccc3)cc2)C1 (centres undefined)
  -3%	-1%	0.4	-1	-1	-20
(62) COc1ccc(CCNC(=O)COc2ccc(N(C)S(=O)(=O)c3ccc(C)cc3)cc2)cc1
  -30%	-40%[inhibitor]	-0.8	-13	-2	-9
(63) CCOC(=O)c1ccc(NC(=O)Nc2cccc(C)n2)cc1
  2%	10%	-1.9	-7	-2	.
(64) CC(Sc1nc2ccccc2o1)C(=O)O (centres undefined)
  0%	?	-1.6	-4	1	3
(65) COc1ccc(-n2c(C)c(C)c3c(NCCN(C)C)ncnc32)cc1
  1%	0%	-6.8	-26	-10	-18
(66) Cc1nnc(SCc2ccc(C(=O)Nc3cc(Cl)ccc3C)cc2)s1
  -30%	-3%	3.3	-7	2	2

Reprinted at random: 2 compounds from above.
The line under a structure holds: gsp antagonist	gsp ag	D2 ag	D2 PAM	Six1-Eya2 inh	CtBP-E1A blk
(61) COC1CCCN(Cc2cn(C)nc2-c2ccc(Oc3ccccc3)cc2)C1 (centres undefined)
  -3%	-1%	0.4	-1	-1	-20
(65) COc1ccc(-n2c(C)c(C)c3c(NCCN(C)C)ncnc32)cc1
  1%	0%	-6.8	-26	-10	-18

Source: PubChem BioAssay (National Center for Advancing Translational Sciences (NCATS))
